From PubChem BioAssay
Beta cell apopt – beta cell apoptosis inhibition. INS-1E cytokine-induced death, ATP luminescence, 48 h; percent of positive-control rescue, neutral wells zero. protection from apoptosis, % (test concentration not listed). actives 0.8% (n = 300,000);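 active means all replicates at 75% or more, or half of them and the mean; inconclusive means half reach 75% but not the mean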;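 further: 0% = cytokine-treated negative control wells and 100% = positive control rescue; higher means more ATP so stronger rescue from cytokine killing; wells of about 40 µL received 100 nL stock; the first replicate is given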
A1 inh – inhibitors of the anti-apoptotic protein A1, read as caspase activation; AID 2462; MEF A1-2A-BIM cells, Caspase-Glo 3/7 luminescence, 3 h; percent of clofoctol response, vehicle zero; actives 0.066% (n = 330,000); caspase activation, % (concentration not given with the values);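 active means over half of replicate activation scores above 10%, or exactly half above 10 with the replicate mean above 10; inconclusive means replicate mean below 10 yet half the replicates above 10; inactive means over half of replicates below 10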;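 further: wells of about 30 µL received 50 nL stock; many hits fall short of the cut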
Beta2AR agonist – human beta-2 adrenergic receptor agonism by FAP | P07550 | Am2.2-beta2AR cells, FAP receptor internalization, flow cytometry; reference of the scale not given here | response, % (concentration not given with the values) | actives 0.43% (n = 340,000);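 active means response above a set limit, near 3 SD of response in nonfluorescent compounds, cut at about 42% in these data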;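 further: stock transfer was 100 nL into about 11 µL; a reference agonist was the positive control; negative values mostly stem from fluorescent compounds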
Target sequence (P07550 whole entry, looked up): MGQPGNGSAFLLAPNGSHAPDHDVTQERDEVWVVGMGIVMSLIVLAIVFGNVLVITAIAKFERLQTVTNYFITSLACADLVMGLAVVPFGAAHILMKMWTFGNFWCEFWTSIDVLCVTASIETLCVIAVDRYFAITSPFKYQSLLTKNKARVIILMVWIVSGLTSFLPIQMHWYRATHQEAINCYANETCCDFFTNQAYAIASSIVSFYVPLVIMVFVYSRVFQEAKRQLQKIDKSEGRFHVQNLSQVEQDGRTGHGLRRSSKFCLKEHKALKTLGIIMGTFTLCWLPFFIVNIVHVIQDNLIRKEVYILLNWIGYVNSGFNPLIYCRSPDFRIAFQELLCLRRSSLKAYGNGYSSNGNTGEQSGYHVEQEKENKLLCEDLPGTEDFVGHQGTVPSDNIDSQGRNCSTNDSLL
UCH37 inh – blocks the human deubiquitinase UCH37. inhibition, % (test concentration not listed). Q9Y5K5. actives 0.33% (n = 330,000). purified proteasome/UCH37, Ub-AMC cleavage fluorescence. AID 588478;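 active means mean of two replicates above 20%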;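 further: 0% = compound-free wells with enzyme and 100% = wells lacking proteasome; stock transfer was 100 nL into about 20 µL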
Target sequence (Q9Y5K5 whole entry, looked up): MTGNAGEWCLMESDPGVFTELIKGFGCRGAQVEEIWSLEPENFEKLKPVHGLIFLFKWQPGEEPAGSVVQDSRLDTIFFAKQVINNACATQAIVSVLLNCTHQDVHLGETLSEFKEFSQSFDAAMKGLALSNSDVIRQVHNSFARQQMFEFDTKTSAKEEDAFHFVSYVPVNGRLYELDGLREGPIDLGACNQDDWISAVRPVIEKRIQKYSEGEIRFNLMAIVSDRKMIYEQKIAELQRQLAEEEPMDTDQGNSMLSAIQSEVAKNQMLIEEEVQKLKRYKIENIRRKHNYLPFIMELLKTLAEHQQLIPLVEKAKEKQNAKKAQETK
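Material: human UCH37 enzyme supplied as purified proteasome complex. Measure: % inhibition of Ub-AMC cleavage fluorescence. Medium: pH 7.4 Tris-HCl (50 mM) with ovalbumin, ATP-MgCl2, DTT. Times: 30 min preincubation with enzyme, 25 min cleavage at room temperature. Detection: AMC fluorescence intensity at 355/460 nm.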
Calb FLC – C. albicans growth modulation with fluconazole. C. albicans CaCi-2 (fluconazole-resistant clinical isolate) + fluconazole, Alamar Blue growth, 48 h. growth inhibition, % (no concentration beside the values). actives 0.57% (n = 300,000). AID 1979;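 active means most replicates above 75%; inconclusive means exactly half above 75%; inactive means most below 75%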;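 further: all wells also contain fluconazole at 8 µg/ml as a sub-toxic cotreatment; 0% = median of DMSO wells and 100% = median of geldanamycin control wells; wells of about 8 µL received 7.5 nL stock; the first replicate is given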
RanGTP-Imp inh – disruptors of Ran-importin-beta complex formation – biochemical, FRET, CFP-Ran, YFP-importin-beta, homogeneous, primary screen | inhibition, % (no concentration beside the values) | AID 2216 | cell-free CFP-Ran/YFP-importin-beta FRET ratio | actives 1.1% (n = 300,000);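 active means most replicates above 15%; inconclusive means exactly half above 15%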;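 further: 0% = DMSO wells and 100% = Ran loaded with GDP instead of GTP; wells of about 40 µL received 100 nL stock; the first replicate is given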
T cruzi inh – blocks replication of Trypanosoma cruzi; T. cruzi beta-gal in NIH3T3, luminescence, 90 h; inhibition, % (no concentration beside the values); actives 1.4% (n = 300,000); AID 1885;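 active means mean inhibition across valid replicates above about 55%, limit read from the data; inconclusive means mean below that limit but half or more replicates reach it; inactive means mean below it, under half of replicates reach it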;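 further: signal also drops with host cell toxicity which is not excluded here; 0% = plate median of DMSO wells and 100% = zero luminescence signal; higher percent means less beta-gal luminescence so fewer parasites; stock transfer was 50 nL into about 50 µL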
LANA-H2B inh – blocks KSHV LANA binding to histone H2A/H2B; Q9QR71; cell-free LANA-H2A/H2B peptide, fluorescence polarization; inhibition, % (concentration not given with the values); actives 0.6% (n = 320,000); in the data active means inhibition mostly above about 10%, no sharp cut-off; inactive means mostly below about 6.7%;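 further: stock transfer was 7.5 nL into about 10 µL; 0% = median of vehicle wells and 100% = median of positive control wells; one replicate is shown; the record names a cut of 25% in any replicate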
An asterisk follows results filed as active; ? = inconclusive; . = not tested or not shown.

SMILES | Beta cell apopt | A1 inh | Beta2AR agonist | UCH37 inh | Calb FLC | RanGTP-Imp inh | T cruzi inh | LANA-H2B inh
Cc1ccc(N2CCN(C(=O)CCc3nc4ccccc4[nH]3)CC2)c(C)c1 | 2.6 | 0.1 | 2.0 | 0.9 | -3.3 | -5.4 | -8.3 | 2.6
Cc1ccc(C2C(C#N)=C(N)N(c3cccnc3)C3=C2C(=O)CCC3)c(C)c1 (stereo unspecified) | -9.3 | 0.3 | 1.4 | 6.2 | 7.7 | 29.6* | 10.3 | -5.3
CC(C)(C)c1ccc(C(=O)NCCn2c(N)c(C#N)c3nc4ccccc4nc32)cc1 | 3.9 | 0.0 | -2.6 | -120.8 | 2.9 | 82.8* | -43.8 | 4.3
O=C(Nc1cccc(C(=O)O)c1)/C(=C\c1ccccc1)NC(=O)c1ccccc1Cl | -2.8 | 0.3 | 4.3 | 0.5 | 8.7 | 3.6 | 8.0 | 2.1
COc1ccc(-n2c(=S)[nH]c3cc(C(=O)NCCCN4CCCC4=O)ccc3c2=O)c(OC)c1 | -2.1 | 1.2 | 4.7 | 1.7 | -0.8 | 3.8 | -12.3 | -0.2
Cc1nn(CC(=O)NNC(=O)c2ccc(Br)cc2)c(C)c1[N+](=O)[O-] | -1.5 | -0.3 | -1.2 | 1.2 | . | . | . | 0.1
Cc1cc(N(CCO)CCO)ccc1C(c1ccc(N(CCO)CCO)cc1C)c1ccccc1Cl | -8.1 | -0.3 | 5.5 | 6.0 | -2.5 | -5.0 | 13.7 | -0.7
O=C(COc1ccc(Br)cc1)Nc1ccc([N+](=O)[O-])cn1 | -2.7 | 1.2 | 6.1 | -4.9 | -27.0 | -0.4 | -2.0 | 6.4
COC(=O)c1sc(N)c(C(=O)OC)c1COC(=O)CNS(=O)(=O)c1cccc(C#N)c1 | -6.8 | -0.2 | 4.7 | -0.3 | 1.0 | 0.1 | 19.6 | -0.5
COC(=O)c1ccc(NC(=S)NC2CC2)cc1 | 2.0 | -0.2 | 12.8 | 0.6 | 4.0 | 1.4 | -25.0 | 3.2
COc1ccc(OC(=O)Nc2ccc([N+](=O)[O-])cc2OC)cc1 | -1.8 | -0.8 | 1.3 | 1.5 | 7.0 | 3.3 | -19.2 | -4.7
CCOC(=O)CSc1nc2c(c(=O)n(C)c(=O)n2C)n1Cc1ccccc1F | -4.8 | -0.3 | 4.3 | 1.6 | -2.3 | 3.3 | 0.4 | -0.6
CCC(=O)c1ccc(OCC(=O)OCC(=O)c2cc(C)n(CC3CCCO3)c2C)cc1 (stereo unspecified) | -7.9 | 1.0 | -1.5 | 1.0 | 5.3 | -1.6 | -18.8 | 5.1
O=[N+]([O-])c1ccc(C(O)C23CN4CN(CN(C4)C2)C3)cc1 (stereo unspecified) | -5.5 | 0.5 | 5.3 | 3.9 | -6.7 | 2.6 | -8.5 | -0.8
COCCNC(=O)C(c1ccco1)N(Cc1ccc(OC)cc1)C(=O)Cn1nnc2ccccc21 (stereo unspecified) | -5.5 | 0.3 | -6.9 | 2.2 | -3.5 | -2.4 | 4.2 | 0.6
C#CCOCCOCCOCCNc1nc(N2CCN(C(=O)CCCCCCCCCCNC(=O)[C@H](CCCCN)n3cc(C[C@@H](C)CC)nn3)CC2)nc(N2CCN(C(=O)CCCCCCCCCCNC(=O)[C@H](CCCCN)n3cc(C[C@@H](C)CC)nn3)CC2)n1 | 114.5* | 0.6 | 42.1* | . | -4.9 | ? | 54.6* | -17.8
N#Cc1ccc(COc2cccc3cccnc23)cc1 | -6.4 | -0.9 | 0.8 | -8.0 | 60.5 | 0.1 | -2.2 | 4.3
Cc1nc(Cl)c(C(=O)NCc2ccccc2)c(C)c1[N+](=O)[O-] | 4.2 | 1.4 | -5.3 | 1.0 | 0.0 | -4.5 | 22.6 | 0.8
O=C(Nc1ccccn1)Nc1ccccc1Cl | 3.3 | -5.4 | -2.3 | 6.2 | 7.4 | -1.9 | -4.5 | 2.3
CCCCNC(=O)C(Cc1ccccc1)NS(=O)(=O)c1ccc2c(c1)c(=O)n(C)c(=O)n2C (stereo unspecified) | 0.9 | -0.3 | 9.3 | 1.8 | . | . | . | 0.3
C=CCn1c(Cc2c[nH]c3ccccc23)n[nH]c1=S | -0.7 | 0.0 | 1.5 | 6.5 | 11.4 | 5.0 | 5.6 | -11.8
Cc1nn(-c2ccccc2)c(Cl)c1/C=N/NC(=O)c1[nH]ncc1Br | 13.9 | -13.2 | 5.2 | . | -0.9 | 0.9 | 0.5 | 0.8
O=c1c2cnn(-c3ccccc3)c2ncn1Cc1ccccc1F | . | -0.6 | -5.6 | 6.3 | -10.7 | 1.9 | -4.8 | -2.3
COc1ccc(S(=O)(=O)NC(CC(=O)NC2CCCC2)c2ccco2)cc1 (stereo unspecified) | -3.9 | 0.3 | 3.1 | 1.0 | -3.0 | 8.0 | -5.4 | -1.2
CCCNC(=O)NC(=O)COc1ccc(-c2ccc(C#N)cc2)cc1 | -6.4 | 0.7 | 4.3 | -0.5 | -29.2 | -1.6 | -12.9 | -3.0
Continuation.
SMILES | Beta cell apopt | A1 inh | Beta2AR agonist | UCH37 inh | Calb FLC | RanGTP-Imp inh | T cruzi inh | LANA-H2B inh
COc1ccc(Cl)cc1NC(=O)COC(=O)C1COc2ccccc2O1 (stereo unspecified) | -5.9 | 0.6 | 6.0 | -2.5 | . | . | . | 1.4
COC(=O)C(Cc1ccccc1)NC(=O)c1cc(=O)[nH]c2ccccc12 (stereo unspecified) | 1.0 | 0.4 | 16.3 | -4.5 | -3.1 | 0.8 | -21.5 | -5.3
O=C(Nc1ccc2c(c1)OCCO2)C1CCN(C(=O)c2ccccc2)CC1 | 7.1 | 0.4 | 2.6 | 0.2 | -6.6 | -0.9 | -0.2 | 1.0
COc1ccc(-c2nn(CC(=O)NCCc3ccccc3)c(=S)n2C)cc1 | 39.9 | 0.1 | -0.9 | 3.4 | 7.1 | 0.4 | 12.4 | -2.4
CCCCOc1ccc(C(=O)Nc2cc(C)c(OCC(=O)N3CCOCC3)c(C)c2)cc1 | 5.0 | 0.8 | 3.8 | 3.5 | 42.3 | -3.0 | 6.4 | 1.5
CC(C)Oc1snc(Cl)c1C(N)=O | -1.5 | -0.4 | 5.1 | -3.8 | -1.8 | 1.7 | 2.3 | 3.1
NC(=O)CSc1nnc(Cn2c(=O)sc3ccccc32)n1-c1cccc(Cl)c1 | -3.0 | 0.2 | 1.7 | 1.9 | 1.4 | -0.1 | 14.4 | 1.4
COc1ccc(NC(=O)c2cccc(OC(=S)N3CCOCC3)c2)cc1 | 0.6 | -1.7 | 6.5 | 0.4 | 2.4 | 3.0 | -15.8 | -13.8
Cc1ccc(S(=O)(=O)N(C)c2ccc(OCC(=O)NCc3ccco3)cc2)cc1 | -3.7 | -0.2 | -3.8 | -0.4 | -1.6 | 0.1 | 4.7 | -7.6
CCOc1cccc(-c2nnc3sc(COc4ccccc4)nn23)c1 | -2.7 | -0.9 | -1.0 | 4.3 | 32.4 | -0.3 | -22.3 | -0.3
CCOC(=O)CSc1nc(C)c(Oc2ccc(Cl)cc2Cl)c(=O)[nH]1 | -2.3 | 0.0 | 1.9 | 1.4 | -5.4 | -1.4 | -6.2 | 0.9
Cc1sc(NC(=O)CN2C(=O)NC3(CCCC3)C2=O)nc1-c1ccc(F)cc1 | . | -0.2 | 7.0 | 1.3 | -14.6 | 3.7 | 17.2 | 0.8
Cc1ccc(CSc2n[nH]c(N)n2)cc1 | -8.3 | -1.2 | -4.1 | -1.8 | ? | -3.5 | -11.2 | 0.9
O=C(NC1CCCCC1)C(c1cccnc1)N(C(=O)CCl)c1cccc(Cl)c1 (stereo unspecified) | 0.4 | -0.5 | 34.5 | -14.8 | -2.2 | 1.6 | 31.5 | 3.4
COc1cccc(C2c3c(oc4ccccc4c3=O)C(=O)N2c2ccccn2)c1 (stereo unspecified) | -15.1 | 0.6 | -10.7 | -1.3 | -3.7 | 2.9 | 8.4 | 0.1
Cc1cc[n+](-c2[nH]c(=O)sc2/C=N/N=C(\[O-])CCn2c3ccccc3c3ccccc32)cc1 | -1.8 | 0.0 | -4.8 | . | 31.0 | 0.0 | -8.0 | -2.8
Cc1ccc(S(=O)(=O)N2CCC(=O)N(C(COCc3cccc(Cl)c3)Cc3ccccc3)CC2)cc1 (stereo unspecified) | 0.9 | -0.6 | 5.8 | 3.9 | -7.2 | 7.1 | 31.2 | 10.7
Cc1nn(-c2ccccc2)c(Cl)c1C(=O)Nc1ccc(N2CCOCC2)cc1 | -0.1 | 1.2 | -0.8 | 1.2 | 26.6 | 8.1 | 5.1 | 3.6
CCOC(=O)c1c(-c2ccccc2)csc1NC(=O)/C(C#N)=C/c1ccc(O)c(OC)c1 | -1.9 | 1.0 | . | 3.5 | -0.1 | -2.7 | 7.9 | -5.4
COc1ccc(CCNC(=O)c2cnc3n(c2=O)CCS3)cc1OC | 0.4 | 0.1 | 0.3 | 1.7 | 8.7 | 5.9 | -9.7 | 1.7
Cc1ccc2[nH]c(=O)c(CN(CCN3CCOCC3)C(=O)Nc3ccc(F)cc3)cc2c1 | -2.8 | -0.3 | 6.3 | 2.1 | -17.2 | 0.2 | 19.0 | -2.6
CN1/C(=C/C(=S)NC(=O)C2(C)CC2(Cl)Cl)C(C)(C)c2ccccc21 (stereo unspecified) | 49.3 | 1.3 | 11.5 | 11.2 | -1.4 | -6.1 | 54.5* | -6.6
COc1ccc(-n2ncc(C(C)NS(=O)(=O)c3ccc(C(C)=O)cc3)c2C)cc1 (stereo unspecified) | 11.1 | 0.2 | -7.2 | 0.9 | -7.0 | 4.8 | -7.9 | -2.5
COc1ccc(CCNC(=O)c2ccc3c(c2)S(=O)(=O)N=C2CCCCCN23)cc1 | -8.9 | -0.5 | -7.1 | -1.7 | 20.6 | -3.6 | 8.5 | .
Cc1ccc(Cn2ccc(NC(=O)c3cc(-c4ccccc4)on3)n2)cc1 | -2.8 | -0.1 | 7.5 | -2.4 | 39.1 | 3.3 | -2.1 | -1.8
O=C(/C=C/c1ccccc1)NCC1(c2ccccc2)CCOCC1 | -7.9 | 0.0 | -5.2 | 3.9 | -2.2 | 1.2 | -10.6 | -15.7
CCOc1cc(/C=N/Nc2cccc(C(=O)O)c2)ccc1OC(=O)c1ccccc1 | . | . | -1.5 | . | ? | -3.8 | -17.5 | .
COc1ccc(N2CCN(C(=O)CSc3nnc4ncccn34)CC2)cc1 | 2.9 | 0.0 | -10.0 | 2.3 | -7.0 | ? | 2.9 | -0.1
O=C(Nc1cc(Cl)ccc1Oc1ccccc1)c1ccc(F)cc1 | -1.6 | 2.5 | 4.7 | 4.8 | -37.6 | 5.8 | -15.9 | 0.6

RanGTP-Imp inh, entries above that show a hit.
SMILES	Beta2AR agonist	UCH37 inh	RanGTP-Imp inh	LANA-H2B inh
Cc1ccc(C2C(C#N)=C(N)N(c3cccnc3)C3=C2C(=O)CCC3)c(C)c1 (stereo unspecified)	1.4	6.2	29.6*	-5.3
CC(C)(C)c1ccc(C(=O)NCCn2c(N)c(C#N)c3nc4ccccc4nc32)cc1	-2.6	-120.8	82.8*	4.3
